LASV entry inh: blocks Lassa virus binding to or entry into cells; Lassa virus pseudotype entry inhibition, cell reporter; control for the full effect not named in the record; Potency, µM (top dose mostly 37.9 µM), inactives show top-dose activity change, negative = inhibition, usual class: inhibitors; actives 1.2% (n = 300,000); AID 540256; active means well fitted inhibition curve with a large enough effect; inconclusive means small, poorly fitted or top-dose-only effect, or effect the other way; inactive means flat fitted curve, though single readings scatter; tested in HEK293 cells; note: % is set by controls: 0 for no effect and ±100 for the full control effect; nearly all actives have a fitted effect of over 50% in size; luciferase read-out
Cruzain inh Det: inhibitors of Trypanosoma cruzi cruzain with detergent; Potency, µM, inactives show max response, negative = inhibition, most hits filed as inhibitors; actives 0.43% (n = 200,000); P25779; purified cruzain, Z-FR-AMC fluorescence, 0.01% Triton; active = well fitted curve in the direction sought with a large enough effect; inconclusive = small, poorly fitted or top-dose-only effect, or another doubt; inactive = no such curve, though single readings can be large; an effect the other way counts as inactive or inconclusive;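 note: plate controls were neutral wells for no effect and buffer without enzyme for full effect; nearly all actives have a fitted effect of over 40% in size; top concentration of the series not given in the record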
Target sequence (P25779 123-467 limits assumed): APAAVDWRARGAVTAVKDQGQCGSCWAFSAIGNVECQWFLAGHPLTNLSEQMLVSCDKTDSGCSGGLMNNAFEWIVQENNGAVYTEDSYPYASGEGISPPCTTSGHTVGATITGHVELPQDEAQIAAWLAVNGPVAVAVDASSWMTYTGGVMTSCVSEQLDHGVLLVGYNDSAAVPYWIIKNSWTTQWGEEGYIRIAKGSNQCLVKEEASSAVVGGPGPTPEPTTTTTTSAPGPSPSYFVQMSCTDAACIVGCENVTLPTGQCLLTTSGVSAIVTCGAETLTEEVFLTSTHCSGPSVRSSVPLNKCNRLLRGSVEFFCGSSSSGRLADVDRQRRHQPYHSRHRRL
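Compounds were screened in titration against cruzain (1.5 nM) with 0.01% Triton X-100 to counter colloidal aggregation. Activity was the AMC fluorescence increase over 60 s after adding 2 uM Z-FR-AMC at pH 5.5.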
2A StopGo: lowers the luciferase signal of an FMDV 2A StopGo reporter; human cells with a luciferase reporter of 2A StopGo recoding; control for the full effect not named in the record; Potency, µM (highest dose often 57.9 µM), inactives show at the highest dose signal change, negative = less light; actives 1.2% (n = 410,000); active = well fitted falling curve with a large enough effect; inconclusive = small, poorly fitted or top-dose-only effect; inactive = no such curve, though single readings can be large or run the other way; tested in HEK293T cells; note: % is set by controls: 0 for no effect and ±100 for the full control effect; nearly all actives have a fitted effect of over 45% in size; luciferase light after 4 h
RE007 growth inh: less growth of the S. pombe RE007 Vpr strain; S. pombe RE007 Vpr strain, BacTiter-Glo ATP luminescence, 24 h; control for the full effect not named in the record; Potency, µM (titrated, usually from 92.2 µM), for inactives: top-dose activity change, negative = less growth; actives 0.21% (n = 360,000); AID 651644; active = well fitted falling curve with a large enough effect; inconclusive = small, poorly fitted or top-dose-only effect; inactive = no such curve, though single readings can be large or run the other way;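 note: % is set by controls: 0 for no effect and ±100 for the full control effect; nearly all actives have a fitted effect of over 50% in size; the assay follows cell death caused by Vpr and the record does not say whether a fall means rescue or toxicity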
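Fission yeast strain RE007, carrying one chromosomally integrated HIV-1 vpr copy, was seeded at OD 0.01 in PMG+AL medium with 23 nL pinned compound. After 24 h at 30 °C and 99% humidity, viability was read by BacTiter-Glo luminescence.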
SARS PLP yeast: blocks SARS-CoV papain-like protease in a yeast assay. S. cerevisiae expressing SARS-CoV PLpro, growth rescue; control for the full effect not named in the record. Potency, µM (titrated, usually from 32.9 µM), without a hit: at the top dose activity, positive = growth rescue. actives 0.19% (n = 330,000); note: 0% is about no effect; nearly all actives have a fitted effect of over 55% in size; growth read by luminescence after 48 h
MARV entry inh: blocks Marburg virus binding to or entry into cells; Potency, µM (series often up to 37.8 µM), for the others: at the highest dose activity change, negative = inhibition, actives largely listed as inhibitors; AID 540276; actives 1.8% (n = 300,000); Marburg virus pseudotyped entry inhibition, cell reporter; control for the full effect not named in the record; about a third of the inactives were read at about 46 µM; active = well fitted inhibition curve with a large enough effect; inconclusive = small, poorly fitted or top-dose-only effect, or effect the other way; inactive = flat fitted curve, though single readings scatter; tested in HEK293 cells; about a fifth of its hits are not listed in these tables; note: % is set by controls: 0 for no effect and ±100 for the full control effect; luciferase read-out
Cruzain noTriton: inhibitors of Trypanosoma cruzi cruzain without detergent; Potency, µM, for inactives: max response, negative = inhibition, usual class: inhibitors; actives 2.3% (n = 200,000); P25779; purified cruzain, Z-FR-AMC fluorescence, no detergent; AID 1476; active = well fitted curve in the direction sought with a large enough effect; inconclusive = small, poorly fitted or top-dose-only effect, or another doubt; inactive = no such curve, though single readings can be large; an effect the other way counts as inactive or inconclusive;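 note: plate controls were enzyme without inhibitor for no effect and buffer without enzyme for full effect; nearly all actives have a fitted effect of over 40% in size; top concentration of the series not given in the record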
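Detergent-free condition (0.00005% Triton X-100) in acetate buffer pH 5.5 with DTT. 1.5 nM enzyme and compound were pre-mixed 15 min, then 2 uM Z-FR-AMC substrate added; reaction progress from fluorescence change between first and third reads (60 s).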
NS1 function inh: inhibitors of influenza NS1 protein function; S. cerevisiae slowed by influenza A NS1, growth recovery by OD600; Potency, µM (top dose mostly 46.1 µM), for inactives: at the top dose activity, positive = more growth; actives 0.4% (n = 270,000); AID 2326; note: actives are rising curves; nearly all actives have a fitted effect of over 50% in size
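S. cerevisiae expressing influenza A NS1, grown in glucose, washed, then diluted 1:100 into pH 6.0 -URA galactose medium with 23 nl compound. Growth recovery read as OD600; NS1-free strain serves as control.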
* marks the source's active call; other numbers are inactive results; ? = inconclusive; / = no result given; & = joins results of further samples; [ ] = remark or other dose. Unless noted, calls come from the whole dose curve; as a rule, active means well fitted rising curve with a large enough effect; inconclusive means small, poorly fitted or top-dose-only effect; inactive means no such curve, though single readings can be large or run the other way. Potency is the fitted concentration of half-maximal effect.

Each structure is followed by: LASV entry inh	Cruzain inh Det	2A StopGo	RE007 growth inh	SARS PLP yeast	MARV entry inh	Cruzain noTriton	NS1 function inh
COc1cc2[nH]c(=O)n(CCCCCC(=O)NC3CCCC3)c(=O)c2cc1OC
→ ?	/	17.1%	0.2%	-1.9%	10.3%[46.1 µM]	/	-2.8%
COc1ccc(-c2nn(CCC#N)cc2C(=O)Nc2ccc(C(C)=O)cc2)cc1[N+](=O)[O-]
→ -12.7%[46.1 µM]	/	5.4%	-2.5%	4.1%	-29.0%[46.1 µM]	/	-5.3%
Cc1cc(C)n(C(=O)c2ccc([N+](=O)[O-])c(Cl)c2)n1
→ -16.0%	-4.0%	-9.4%	-5.2%	2.0%	?	-9.7%	1.7%
Cn1c(=O)c2c(nc(CN3CCOCC3)n2CCCO)n(C)c1=O
→ 6.0%	3.6%	8.0%	12.2%	4.2%	-0.4%	-5.4%	-5.0%
Cc1cc(F)ccc1NC(=S)NCCc1ccccc1
→ -24.8%[46.1 µM]	/	5.6%	-9.3%	4.6%	6.2%[46.1 µM]	/	-6.4%
Cc1ccc(NC(=O)CCC(=O)Nc2ccc(C)cc2)cc1
→ 3.2%	/	-8.8%	-19.1%	11.8%	1.8%	/	-2.4%
CCn1c(SCC(=O)NC2=NCCS2)nnc1C(C)NC(=O)c1ccc(Cl)cc1 (stereo not given)
→ 2.7%[46.1 µM]	/	-12.1%	-3.3%	-0.1%	?	/	3.1%
O=C1c2ccccc2C(=O)N1c1cccc(-c2csc(Nc3ccc4c(c3)OCO4)n2)c1
→ /	-0.3%	/	/	15.3%	-1.1%	5.01µM*	28.8%
Cc1cc(C)cc(NC(=O)Cn2c(=O)n(-c3cc(C)cc(C)c3)c(=O)c3oc4ccccc4c32)c1
→ 4.2%[46.1 µM]	-2.1%	-10.1%	/	/	/	-28.0%	/
COc1ccc(CCn2c(=O)c3cccnc3n(Cc3ccc([N+](=O)[O-])cc3)c2=O)cc1OC
→ 14.1%	/	?	1.4%	0.3%	-8.9%	/	/
O=C(NCC1(c2ccccc2)CCCC1)c1ccccc1Br
→ -3.7%	-1.6%	?	11.7%	13.9%	4.8%	3.9%	-14.8%
C=CCNC(=O)C(=O)NCC1CCCN1S(=O)(=O)c1cccs1 (stereo not given)
→ -0.1%[46.1 µM]	/	-9.4%	-1.8%	1.5%	24.1%	/	/
Cc1ccc(-n2cccn2)c(CN2CCCC(C(=O)c3sccc3C)C2)c1 (stereo not given)
→ ?	/	?	-26.7%	0.4%	?	/	-5.4%
CCOC(=O)C1CCN(CC(=O)Nc2cc(C)c3c(=O)oc4ccccc4c3n2)CC1
→ ?	-1.0%	0.0%	/	/	10.4%[46.1 µM]	-12.8%	/
CSc1ccc(CNC(=O)CCn2ccc3cc(S(=O)(=O)N4CCCC4)ccc32)cc1
→ ?	-2.9%	-13.5%&10.6%	0.5%	2.7%	?	3.2%	9.6%
O=C(/C=C\NCC(=O)c1ccccc1)c1ccc(F)cc1
→ 4.9%	-14.7%	29.2%	-9.5%	2.0%	10.0%	-22.5%	-3.6%
CCOCCn1c(SCc2ccc(C)cc2)nc2c1c(=O)[nH]c(=O)n2C
→ /	3.1%	-21.7%	3.8%	1.0%	/	0.0%	1.8%
CCOc1ccc2nc(N3CCCC(C(=O)NCCCN4CC(C)CC(C)C4)C3)sc2c1 (stereo not given)
→ /	/	20.1%	-9.4%	0.0%	/	/	-12.7%
CCc1cc(=O)oc2cc(OCC(=O)N3C[C@H]4C[C@@H](C3)c3cccc(=O)n3C4)ccc12
→ /	/	-6.1%	-6.5%	4.0%	/	/	-16.1%
O=S(=O)(Nc1ccc(-c2ccc(N3CCCC3)nn2)cc1)c1cc(F)ccc1F
→ 10.1%[46.1 µM]	-6.6%	12.7%	/	/	/	-5.0%	/
O=C(CN1CCC(n2nnc3cc(F)ccc32)CC1)NCc1ccco1
→ -3.2%	0.3%	8.7%	10.2%	3.7%	-3.0%	10.3%	?
COc1ccc(NC(=O)c2sc3nc(N4CCOCC4)c4c(c3c2N)CCCC4)c(OC)c1
→ 8.5%[46.1 µM]	/	4.0%	3.1%	6.7%	?	/	8.4%
CCc1c(C)nc2ncnn2c1N1CCC(C(=O)NCc2ccc3c(c2)OCO3)CC1
→ 21.8%[14.3 µM]	0.8%	-14.6%	2.6%	5.5%	-14.9%	3.4%	4.0%
Cc1ccc(S(=O)(=O)Nc2nc(C)c(C)s2)cc1
→ /	/	100.7%[activator]	12.0%	3.7%	/	/	2.1%
COc1ccc(NC(=O)CSc2nnc(-c3ccccn3)n2N)cc1Cl
→ 2.9%	3.3%	-7.6%	19.9%	-4.3%	21.6%	-6.5%	2.5%
Cc1cc(C(=O)CSc2nnc(-c3ccc(F)cc3)o2)c(C)n1CC1COc2ccccc2O1 (stereo not given)
→ -10.7%	5.8%	?	-1.3%	6.7%	-10.4%	15.8µM*	13.7%
COc1ccc(-c2nsc(NC(=O)c3oc4cc(C)c(C)cc4c3C)n2)cc1
→ 0.3%[46.1 µM]	3.1%	-12.0%	/	/	-4.3%[46.1 µM]	-0.4%	/
Cc1c(C)c2ccc(Oc3ccc([N+](=O)[O-])cc3C(F)(F)F)c(C)c2oc1=O
→ -9.2%	-0.5%	-13.0%	0.8%	7.7%	-0.5%	-6.4%	15.1%
c1csc(-c2nnc(-c3ccc(N4CCOCC4)cc3)o2)c1
→ ?	-6.9%	-30.0%	-21.1%	2.8%	?	-6.0%	-19.6%
O=C(COC(=O)c1cc[n+]([O-])cc1)Nc1ccc(Cl)cc1C(F)(F)F
→ -4.9%	/	-18.2%	-3.3%	-2.6%	-15.9%	/	/
COc1cc(-c2nc3oc4ccccc4c(=O)c3c(=O)n2Cc2ccco2)cc(OC)c1OC
→ 6.31µM*	-2.9%	0.0%	0.8%	-22.1%	7.94µM*	2.4%	-17.1%
Cc1ccc(CNC(=O)C2CCCN(S(=O)(=O)c3c(C)n[nH]c3C)C2)cc1 (stereo not given)
→ 8.0%	1.2%	/	0.9%	11.0%	-21.8%	9.0%	-4.1%
O=C(CN(Cc1ccccc1Cl)C(=O)CCC(=O)Nc1nccs1)NCC1CCCO1 (stereo not given)
→ -3.4%[46.1 µM]	/	13.7%	-3.1%	3.1%	5.3%[46.1 µM]	/	-3.8%
Cc1cc(OCCN2CCOCC2)nc2ccccc12
→ 6.2%	0.3%	-18.4%	-0.5%	6.1%	39.5%&39.5%	-1.7%	1.5%
Cc1cc(C)c2nc(N3CCCC(C(=O)NCc4ccccc4F)C3)sc2c1 (stereo not given)
→ /	-0.1%	-3.6%	/	/	7.9%[46.1 µM]	-9.6%	/
CCOC(=O)c1ccc(NC(=O)CCNS(=O)(=O)c2cccs2)cc1
→ /	/	24.5%	-1.8%	1.4%	-24.3%[46.1 µM]	/	-15.5%
Cc1cccc(S(=O)(=O)c2c(N)n(Cc3ccco3)c3nc4ccccc4nc23)c1
→ -16.8%	-4.3%	24.8%	0.3%	2.8%	-29.2%	5.4%	-62.0%
Cc1c(Cl)cccc1NC(=O)CNC(=O)CCCc1nc2ccccc2c(=O)[nH]1
→ 2.6%[46.1 µM]	/	-10.4%	1.4%	-19.5%	4.0%	/	/
O=C(CCn1c(=O)c2cccn2c2ccc(F)cc21)NCc1ccccc1F
→ 21.6%[46.1 µM]	-1.2%	-4.9%	/	/	/	4.5%	/
Cc1cc(C)cc(NC(=O)C2CC3CCC2C3)c1 (stereo not given)
→ /	/	21.0%	-13.2%	1.4%	/	/	-9.9%
O=C1COc2ccc(C(=O)COC(=O)c3cnc(Cl)c(Cl)c3)cc2N1
→ 0.1%[46.1 µM]	/	-16.6%	8.7%	-6.0%	7.2%[46.1 µM]	/	/
CCn1nc(C)c(Br)c1-c1nc(CS(=O)(=O)c2ccsc2)no1
→ /	/	8.3%	1.1%	0.2%	/	/	-11.0%
CCCc1cc(=O)[nH]c(/N=C(/NC(=O)c2ccccc2)Nc2ccc3c(c2)OCCO3)n1
→ -8.7%	/	-29.0%	-1.7%	/	-0.2%[46.1 µM]	/	-5.4%
Cc1cc(/C=C(\C#N)C(=O)NCc2cccs2)c(C)[nH]1
→ 0.8%	/	71.4%[activator]	0.1%	0.9%	-4.2%[14.2 µM]	/	-0.8%
CCN1CCN(c2ccc(S(=O)(=O)N3CCCCC3)cc2NC(=O)Cc2ccc(OC)cc2)CC1
→ 4.9%	/	0.6%	9.7%	3.3%	?	/	-24.0%
COc1ccccc1CNC(=O)CCCCn1c(=O)c2ccccc2n(CC(=O)Nc2cc(Cl)ccc2C)c1=O
→ -28.2%[46.1 µM]	-2.0%	-29.0%	/	/	-0.6%[46.1 µM]	-2.9%	/
Cc1nonc1CN(C)C(=O)c1ccc(OC2CCN(C(=O)c3cccnc3)CC2)cc1
→ 28.3%	/	35.1%[activator]	7.5%	-2.0%	1.8%[46.1 µM]	/	-2.3%
COc1ccc(CCC(=O)NCc2cccc(C(F)(F)F)c2)cc1
→ /	/	-11.1%	-3.3%	-1.3%	/	/	-3.4%
CCOC(=O)Nc1c(C(=O)OC)[nH]c2cc(OC)ccc12
→ ?	-2.5%	-9.2%	0.2%	-0.1%	?	-0.5%	-0.6%
CCC(C(=O)O)N1C(=O)/C(=C/C(C)=C/c2ccccc2)SC1=S (stereo not given)
→ 7.0%	/	-21.3%	6.4%	1.3%	12.9%[46.1 µM]	/	7.9%
O=C(NCCN1CCOCC1)C(=O)NCc1ccc2c(c1)OCO2
→ -2.7%	/	39.2%[activator]	-3.4%	0.6%	13.7%[46.1 µM]	/	5.0%
COCCN(CC(=O)NCC1CCCO1)C(=O)CCC(=O)Nc1ccccn1 (stereo not given)
→ -2.6%	/	-22.5%	-11.2%	-5.7%	16.4%[46.1 µM]	/	/
